Bioassay records as filed in PubChem BioAssay.
Anthrax LT inh – inhibitors of anthrax lethal toxin internalization. Cells, anthrax lethal toxin internalization, FRET ratio (460/530). Potency, µM (series often up to 40 µM), without a hit: at the highest dose activity change, negative = inhibition, hits mostly inhibitors. actives 0.67% (n = 70,000). AID 912; active = well fitted falling ratio curve with the 530 nm signal flat; inconclusive = other ratio curves, or a change in one channel alone; inactive = flat curves in the ratio and both channels; the % refers to the ratio; note: % is set by controls: 0 for no effect and ±100 for the full control effect; nearly all actives have a fitted effect of over 50% in size; tested in ME-180 cells; beta-lactamase reporter
SmPrx2 inh – blocks S. mansoni peroxiredoxin 2 enzymatic activity; S. mansoni Prx2 activity coupled to TGR/GSH (TGR is thioredoxin glutathione reductase), NADPH fluorescence loss, qHTS; some inactives read as strong as hits; Potency, µM; actives 0.07% (n = 65,000); active means full or partial inhibition curve with a strong effect at the top dose; inconclusive means weaker partial or single-point curve; inactive means no accepted curve; note: series up to 57 µM; many of its hits are not listed in these tables
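Purified S. mansoni TGR and Prx2 in pH 7.4 phosphate buffer with EDTA and Tween-20 were preincubated with compounds for 15 min. Further NADPH/GSH was added, then a 2.5 mM H2O2 aliquot initiated turnover, followed kinetically by NADPH fluorescence.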
Active calls of the source: *; u = inconclusive; x = not tested or not shown; & = joins results of further samples; [ ] = dose if it differs, or a comment. Potency is the fitted concentration of half-maximal effect.

entry	Compound	SmPrx2 inh	Anthrax LT inh
1	CCOC(=O)N1CCC(NC(=O)c2ccc(CNS(=O)(=O)c3ccc(F)cc3)cc2)CC1	>57	15.4%
2	CCn1c(SCC(N)=O)nc2c(c1=O)C1(CCCC1)Cc1ccccc1-2	x	-13.6%
3	CCOC(=O)C1CCN(C(=O)C2(NC(=O)Nc3ccccc3Cl)CCCCC2)CC1	>57	-2.5%
4	CCOC(=O)CC(=O)CSc1nc2c(c(C)c1C#N)CCC2	>57	-7.7%
5	Cc1c(C(O)CN2CCC(C(N)=O)CC2)c2ccccc2n1C (centres undefined)	>57	-17.3%
6	N#Cc1c(NC(=O)CSc2ncc(-c3ccccc3)n2CC2CCCO2)sc2c1CCCC2 (centres undefined)	>57	u
7	COc1ccc(C2CC(c3c(Cl)cccc3Cl)n3nc(N)nc3N2)cc1 (centres undefined)	>57	u
8	CCC(C)(C)NC(=O)C(c1cccn1C)N(Cc1ccc(C)cc1)C(=O)Cn1nnc2ccccc21 (centres undefined)	>57	-2.2%
9	CCn1cnc2scc(-c3ccccc3)c2c1=O	>57	-6.6%
10	COc1c2c(nc3ccccc13)O[C@H]([C@@](C)(O)CO)C2	>57	-2.4%[3.58 µM]
11	Cc1ccccc1C(=O)Nc1ccc2c(c1)OCO2	>57	-0.7%
12	Cc1ccc2ncccc2c1NS(=O)(=O)c1ccccc1	>57	-4.5%
13	Cc1n[nH]c(C)c1S(=O)(=O)N1CCCC(C(=O)Nc2ccc3c(c2)OCCO3)C1 (centres undefined)	>57	5.9%
14	NC(=O)c1sc2nc3c(c(-c4cccs4)c2c1N)CCCC3	>57	-20.8%
15	O=C(O)c1cccc(NS(=O)(=O)c2cccc3cccnc23)c1	>57	-2.6%
16	Clc1cc(Cl)cc(Cl)c1	x	-1.0%
17	CC(C)(C)c1cc(C(=O)O)nn1-c1ccccc1	>57	-9.3%
18	O=C(c1cnn2c(C(F)(F)F)cc(-c3ccco3)nc12)N1CCCCCC1	x	u
19	Cc1nc2ccc(C(C(F)(F)F)(C(F)(F)F)C(F)(F)F)cc2[nH]1	>57	1.3%
20	CCOC(=O)/C=c1\s/c(=C\c2ccc3c(c2)OCCO3)c(=O)n1CC(=O)NCC1CCCO1 (centres undefined)	>57	0.3%
21	CCOC(=O)N1CCN(Cc2nc3c(c(=O)n(C)c(=O)n3C)n2Cc2ccc(F)cc2)CC1	>57	-6.2%
22	O=C1CC(N2CCC(c3nc4ccccc4o3)CC2)C(=O)N1c1ccc(Cl)cc1 (centres undefined)	>57	11.2%
23	O=C(C1CCCCC1)N(CCN1CCCC1)c1nc2ccccc2s1	>57	-0.2%
24	Cc1cccc(OCc2nnc(SCC(=O)c3cccs3)n2C)c1C	>57	-8.8%
25	Cc1cccc(NC2=NC3(CCCCC3)N=C(N)N2)c1C	>57	-17.5%
26	Cc1ccc(N(C(C)C(=O)O)S(=O)(=O)c2cccnc2)cc1 (centres undefined)	>57	7.3%
27	CC1(C)CC(=O)C(C=NCCCO)=C(O)C1	>57	-6.7%
28	CC(CCc1ccccc1)C(=O)NO (centres undefined)	x	-11.5%
29	O=C(NCc1ccc2c(c1)OCO2)C1CCN(S(=O)(=O)c2ccc(Br)s2)CC1	>57	-10.5%
30	Cc1cccc(-c2nsc(SCC(=O)Nc3nccs3)n2)c1	>57	5.4%
31	O=C(NC1CCCC1)C(c1cccs1)N(C(=O)c1ccno1)c1ccccc1 (centres undefined)	>57	7.4%
32	Cc1cnc(CNc2nc(-c3ccccc3C)nc3ccccc23)cn1	>57	-26.0%
33	COc1ccc(OC)c(N=c2oc3cc(O)ccc3cc2C(N)=O)c1	>57	u
34	CCCCCCn1cnc2c(c1=O)c1nc3ccccc3nc1n2/N=C/c1ccco1	>57	-20.9%
35	Cc1cc(Nc2cc(C)on2)n2ncnc2n1	>57	2.0%
36	CC(=O)c1cccc(N(CC(=O)O)S(C)(=O)=O)c1	>57	13.9%
37	O=C1CSC(=NC(=O)c2ccccc2)N1	x	1.8%
38	c1ccc(OCCSc2nnc3sc4ccccc4n23)cc1	>57	u
39	O=C(CN(C(=O)Cn1nnc(-c2cccs2)n1)c1cnc2ccccc2c1)NCC1CCCO1 (centres undefined)	>57	-1.3%
40	CCOc1ccc2nc(C)cc(C(=O)O)c2c1	>57	-4.4%
41	N#Cc1nc(-c2ccccc2F)oc1NCCc1ccccn1	>57	0.8%
42	O=C(NCc1cccnc1)Nc1cccc(NC(=O)NCc2cccnc2)c1	>57	-2.6%
43	CC(NS(C)(=O)=O)C(c1cccs1)N1CCN(Cc2ccccc2)CC1 (centres undefined)	>57	-4.2%
44	COc1ccc2c(c1)CCc1c(C(=O)Nc3c(C)n(C)n(-c4ccccc4)c3=O)noc1-2	>57	4.4%
45	Cc1ccc(-c2nc(N)n(C(=O)c3cccnc3)n2)cc1	>57	-2.9%
46	COCc1cc(=O)n2c(-c3ccccc3OC)n[nH]c2n1	>57	10.4%
47	C=CCn1c(SCC(=O)Nc2ccc(C(=O)OCC)cc2)nnc1-c1sc(N)nc1C	>57	u
48	COCCCNC(=O)COc1ccc(Cl)c(C)c1	x	-7.5%
49	O=C(Oc1ccccc1)N1CCC[C@@]2(CCN(Cc3nccs3)C2)C1	>57	5.5%
50	CSc1nc2nc(-c3ccccc3)cc(C(F)(F)F)n2n1	x	-4.4%
51	CCNc1nc(NCC)nc(-n2nc(C)cc2C)n1	x	-7.1%
52	OCCN(Cc1ccccc1)CC1CCCCC1	>57	-3.3%
53	CCN(C(=O)CSc1nnc(-c2ccccc2Cl)n1C1CCCC1)C1CCS(=O)(=O)C1 (centres undefined)	>57	-2.9%
54	O=S(=O)(c1ccc(F)cc1)N1CCC(N2CCN(c3ccccc3)CC2)CC1	>57	-12.1%
55	COc1cccc(-n2nnnc2SCC(=O)NCCc2ccccc2)c1	>57	-12.4%
56	CCc1noc2c1/C(=N\O)CC(c1ccccc1)C2 (centres undefined)	x	5.5%
57	Cc1ccc(C2C(C#N)=C(N)Oc3c2oc(CO)cc3=O)o1 (centres undefined)	u	-3.6%
58	C=CCn1c(N)c(S(=O)(=O)c2cccs2)c2nc3ccccc3nc21	>57	-13.5%
59	O=c1c2c(nc3nc(CCc4ccccc4)[nH]n13)CCC2	>57	x
60	COC(=O)c1ccc(C(/C=C/[C@@H](C)C(=O)NCc2cc(C)n(C)n2)NC(=O)OCc2ccccc2)cc1 (some centres undefined)	x	-3.4%

Reprinted from the part before: 3 compounds; new compounds follow.
entry	Compound	SmPrx2 inh	Anthrax LT inh
58	C=CCn1c(N)c(S(=O)(=O)c2cccs2)c2nc3ccccc3nc21	>57	-13.5%
59	O=c1c2c(nc3nc(CCc4ccccc4)[nH]n13)CCC2	>57	x
60	COC(=O)c1ccc(C(/C=C/[C@@H](C)C(=O)NCc2cc(C)n(C)n2)NC(=O)OCc2ccccc2)cc1 (some centres undefined)	x	-3.4%
61	CCC(=O)Nc1cc2c(cc1C(C)=O)OCCO2	x	u
62	CCOc1ccc(C(=O)COC(C)=O)cc1	x	-3.0%
63	CSc1nnnn1-c1ccc(C(=O)OCC(=O)N2CCOCC2)cc1	>57	5.8%
64	COc1ccc(CCNC(=O)Cn2cnc3c(cnn3C(C)(C)C)c2=O)cc1OC	>57	-4.2%
65	CCCOc1ccc(C2c3c(oc4cc(C)c(C)cc4c3=O)C(=O)N2CCCN(C)C)cc1 (centres undefined)	>57	u
66	Cc1cccc(N2CCN(C3=NC(=O)C(=C4CCCCC4)S3)CC2)c1	>57	4.4%
67	CCCCCn1c(SCC(=O)OCC)nc2cc(C(=O)NCc3ccco3)ccc2c1=O	>57	-7.6%
68	O=C(c1cccs1)N1CCOCC1	>57	3.1%
69	CCOC(=O)Cn1nc(-c2ccccc2)nc1-c1ccccc1	>57	-6.9%
70	O=C(NCc1ccccn1)Nc1ccc(F)cc1	>57	-1.3%
71	Cc1noc(C)c1C(=O)Nc1sc2c(c1C(N)=O)CCCCC2	>57	x
72	CCCCNC(=O)c1ccc(NS(=O)(=O)c2ccccc2)cc1	>57	u
73	CN(C)c1ccc(-c2nc3ccccc3n2C)cc1	>57	u
74	COc1ccc(-c2nc3cnc(N4CCOCC4)nc3n(-c3ccccc3)c2=O)cc1	>57	u
75	Cc1nn(-c2ccccc2)c2nc(-c3ccco3)cc(C(=O)O)c12	>57	-0.3%
76	CC(C)Oc1ccc(NC(=O)c2ccncc2)cc1	>57	-10.1%
77	CCOc1ccc(N2CC(C(=O)Nc3ccccc3OC)CC2=O)cc1 (centres undefined)	>57	u
78	CCCOC1CCCN(C(=O)c2cc(Cl)c(Cl)cc2C(=O)O)C1 (centres undefined)	>57	-1.5%
79	CC(C)N=C(NC#N)SCc1ccc(F)cc1	>57	-3.9%
80	Cc1ccc(S(=O)(=O)N2CCOCC2)cc1C(=O)Nc1nc(-c2cccnc2)cs1	>57	5.3%
81	CC(C)(C)c1ccccc1OCCCCCNCCO	x	u
82	COC(=O)c1ccccc1NC(=O)CN1C(=O)c2ccccc2S1(=O)=O	>57	3.8%
83	COc1cccc(CNC(=O)CN(c2cc(C)cc(C)c2)S(=O)(=O)c2c(C)noc2C)c1	>57	-23.1%
84	Cc1cc(OCn2ccc(C(=O)O)n2)ccc1Cl	>57	2.2%
85	Cc1cccc2cc(CN(Cc3ccco3)C(=O)c3ccncc3)c(=O)[nH]c12	>57	-6.2%
86	N[C@@H]1CCN(O)C1=O	>57&>57	u
87	COC(=O)C(CCSC)NC(=O)Cn1ncc2c(=O)oc3ccc(C)cc3c21 (centres undefined)	>57	-0.5%
88	COC(=O)N1[C@H](Cc2ccccc2)C=C[C@]1(C)C(=O)NCc1ccccn1	x	4.8%
89	O=C(O)CN1C(=O)CN=C(c2ccccn2)c2cc(Cl)ccc21	>57	u
90	Cc1ccccc1NS(=O)(=O)c1ccc(NC(=O)c2ccco2)cc1	>57	-1.2%
91	COc1ccc(Cl)cc1NC(=O)CC(C)=O	x	11.4%
92	CCCOc1ccc(C2C(C(=O)c3ccco3)=C(O)C(=O)N2CCCn2ccnc2)cc1 (centres undefined)	>57	1.3%
93	COC(=O)Nc1ccc(S(=O)(=O)N(C)C)cc1	>57	-6.6%
94	CC(C)CN1CC[C@@]2(CCCN(S(=O)(=O)c3ccccc3)C2)C1	>57	u
95	Cc1cc(C)cc(N(CC(=O)Nc2cccc(C)n2)S(=O)(=O)c2c(C)noc2C)c1	>57	u
96	COCCN(C(C)=O)c1nnc(-c2cnccn2)s1	>57	10.1%
97	CCCN(CCC)CCCNC(=O)c1cn(CCOC)c(=O)c2c1c1ccccc1n2C	>57	-3.2%
98	O=C(CCC1COc2ccccc2O1)Nc1cccnc1 (centres undefined)	>57	6.0%
99	C=C(C)CSc1nc(N)c2c(C)c(C)sc2n1	>57	8.1%
100	CCCCCNC(=O)CCCCn1c(=O)[nH]c2cc(OCC)c(OCC)cc2c1=O	>57	-23.8%
101	Cc1nnc(NC(=O)C2COc3ccccc3O2)s1 (centres undefined)	>57	5.4%
102	O=C1CC(N2CCSCC2)C(=O)N1CCc1ccccc1 (centres undefined)	>57	12.5%
103	C1CCN2C[C@@H]3C[C@@H](CN4CCCC[C@H]34)[C@H]2C1	>57&>57	-6.1%
104	CCS(=O)(=O)N1CCCC(C(=O)NCc2ccc(C)cc2)C1 (centres undefined)	>57	23.4%
105	Cc1ccccc1-c1nccc(Nc2ccc(F)cc2)n1	>57	-20.0%
106	CN1CCN(CCCNC(=O)c2cn(C)c3ccc(S(=O)(=O)N(C)C)cc3c2=O)CC1	>57	-4.1%
107	CC(C(=O)O)c1ccc(-c2ccccc2)c(F)c1 (centres undefined)	>57	1.2%
108	CC1(C)CC(=O)C=C(Nc2ccc3c(c2)OCCO3)C1	x	13.1%
109	O=S(=O)(NCCc1csc(-c2cccnc2)n1)c1cccs1	>57	17.9%
110	N[C@H](C(=O)O)[C@H](OCc1ccccc1)C(=O)O	>57	6.1%
111	COC(=O)[C@@]1(Cc2ccc(OC)cc2)[C@H]2c3cc(C(=O)N4CCCC4)n(CCc4c[nH]c5ccccc45)c3C[C@H]2CN1C(=O)c1ccccc1	>57	u
112	O=C(CCCOc1ccccc1)Nc1ccc(S(=O)(=O)N2CCOCC2)cc1	>57	-14.4%
113	Cc1nc2ncnn2c(C)c1CCC(=O)N1CCN(C(=O)c2ccco2)CC1	>57	2.4%
114	C[C@]1(c2ccccc2)O[C@@H]2C[C@@H]3[C@@H]4CCC5=CC(=O)C=C[C@@]5(C)[C@]4(F)[C@H](O)C[C@]3(C)[C@@]2(C(=O)CO)O1	>57	-14.9%[8 µM]
115	CCN(CC)c1ccc2cc(-c3nc4ccccc4[nH]3)c(=O)oc2c1	x	u
116	CNc1ccnc(-c2ccccc2C)n1	>57	5.9%
117	CC(=NCc1ccco1)c1c(O)n(Cc2ccccc2)c(=O)[nH]c1=O	>57	10.8%
118	COc1cc(NC(=O)CN2C(=O)NC(C)(CCC(C)C)C2=O)cc(OC)c1 (centres undefined)	>57	4.7%
119	Cc1cccc2cc(C#N)c(N3CCCC3)nc12	>57	16.9%
120	Cc1sc2c(=O)n3c(nc2c1C(=O)NCCCN1CCOCC1)CCCCC3	>57	-6.2%
121	CCCCn1c(SCC(=O)Nc2cccc(C)n2)nnc1-c1ccco1	>57	9.7%
122	CCn1c(SC)nnc1-c1nnc(SC)n1CC	>57	-4.4%

Only part of the results is shown; count on the stated rates, not on these rows.
